# Screening data: PubChem BioAssay, several laboratories
# Beta cell apopt – beta cell apoptosis inhibition. AID 435005. INS-1E cytokine-induced death, ATP luminescence, 48 h; percent of positive-control rescue, neutral wells zero. 300,000 compounds, 0.8% hits. protection from apoptosis, % (concentration not given with the values);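 active = all replicates at 75% or more, or half of them and the mean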;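 note: 0% = cytokine-treated negative control wells and 100% = positive control rescue; higher means more ATP so stronger rescue from cytokine killing; wells of about 40 µL received 100 nL stock; the first replicate is given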
# LANA-H2A inh – blocks KSHV LANA binding to histone H2A/H2B; Q9QR71; cell-free LANA-H2A/H2B peptide, fluorescence polarization; inhibition, % (no concentration beside the values); 320,000 compounds, 0.6% hits; AID 2629; in the data active = inhibition mostly above about 10%, no sharp cut-off; inactive = mostly below about 6.7%;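 note: stock transfer was 7.5 nL into about 10 µL; 0% = median of vehicle wells and 100% = median of positive control wells; one replicate is shown; the record names a cut of 25% in any replicate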
# Target sequence (Q9QR71 whole entry, looked up): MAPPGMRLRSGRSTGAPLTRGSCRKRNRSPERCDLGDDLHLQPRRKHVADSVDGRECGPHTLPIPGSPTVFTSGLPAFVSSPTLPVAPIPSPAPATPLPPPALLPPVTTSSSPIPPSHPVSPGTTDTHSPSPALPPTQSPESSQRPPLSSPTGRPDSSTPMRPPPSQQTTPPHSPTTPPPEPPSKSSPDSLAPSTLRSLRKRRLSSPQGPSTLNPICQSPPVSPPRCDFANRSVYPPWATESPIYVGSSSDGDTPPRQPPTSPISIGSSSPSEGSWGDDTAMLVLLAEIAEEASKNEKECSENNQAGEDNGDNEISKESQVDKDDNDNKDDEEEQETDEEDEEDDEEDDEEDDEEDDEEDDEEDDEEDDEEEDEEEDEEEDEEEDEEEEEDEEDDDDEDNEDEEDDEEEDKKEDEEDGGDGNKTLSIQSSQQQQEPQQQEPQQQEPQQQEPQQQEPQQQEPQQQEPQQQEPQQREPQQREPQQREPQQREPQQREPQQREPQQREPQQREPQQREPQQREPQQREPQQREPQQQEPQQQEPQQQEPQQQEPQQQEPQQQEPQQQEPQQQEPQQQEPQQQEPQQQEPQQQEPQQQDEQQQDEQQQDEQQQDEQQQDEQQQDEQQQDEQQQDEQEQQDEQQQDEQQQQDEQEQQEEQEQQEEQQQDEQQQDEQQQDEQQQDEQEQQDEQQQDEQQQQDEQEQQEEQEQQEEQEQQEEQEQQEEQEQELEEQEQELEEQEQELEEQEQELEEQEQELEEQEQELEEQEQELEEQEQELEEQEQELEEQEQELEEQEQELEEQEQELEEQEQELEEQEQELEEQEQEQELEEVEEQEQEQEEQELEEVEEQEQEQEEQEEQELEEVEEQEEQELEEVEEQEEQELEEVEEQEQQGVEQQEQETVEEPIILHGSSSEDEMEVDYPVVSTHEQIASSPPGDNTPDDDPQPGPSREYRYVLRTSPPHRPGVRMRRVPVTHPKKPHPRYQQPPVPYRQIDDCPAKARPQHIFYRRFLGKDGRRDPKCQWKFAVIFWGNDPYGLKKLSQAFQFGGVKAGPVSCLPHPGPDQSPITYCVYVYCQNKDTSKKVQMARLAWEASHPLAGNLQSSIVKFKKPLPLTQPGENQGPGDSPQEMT
# A1 inh – inhibitors of the anti-apoptotic protein A1, read as caspase activation; 330,000 compounds, 0.066% hits; AID 2462; caspase activation, % (no concentration beside the values); MEF A1-2A-BIM cells, Caspase-Glo 3/7 luminescence, 3 h; percent of clofoctol response, vehicle zero;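 active = over half of replicate activation scores above 10%, or exactly half above 10 with the replicate mean above 10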;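 note: wells of about 30 µL received 50 nL stock; many hits fall short of the cut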
# rRNA inh HTS – inhibits bacterial ribosomal RNA function over humanized ribosomes | GFP signal change (wild-type ribosome), % (no concentration beside the values) | 350,000 compounds, 1.6% hits | E. coli WT GFP vs humanized-ribosome RFP mutants, fluorescence, 24 h; stronger effect = lower value; DMSO median 0, no signal -100;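 active = significant combined selectivity score with lowered wild-type GFP, culture density cut under 30%, mutant RFP and density less affected; inactive = any of these conditions unmet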; note: one replicate is shown; some compounds called inactive have numbers as strong as hits
# B2AR ag – activates human beta-2 adrenergic receptor causing internalization | P07550 | Am2.2-beta2AR cells, FAP receptor internalization, flow cytometry; reference of the scale not given here | response, % (concentration not given with the values) | 340,000 compounds, 0.43% hits | AID 504454;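 active = response above a set limit, near 3 SD of response in nonfluorescent compounds, cut at about 42% in these data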;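 note: stock transfer was 100 nL into about 11 µL; a reference agonist was the positive control; negative values mostly stem from fluorescent compounds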
# T cruzi inh – blocks replication of Trypanosoma cruzi | T. cruzi beta-gal in NIH3T3, luminescence, 90 h | inhibition, % (no concentration beside the values) | 300,000 compounds, 1.4% hits | AID 1885;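 active = mean inhibition across valid replicates above about 55%, limit read from the data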;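 note: signal also drops with host cell toxicity which is not excluded here; 0% = plate median of DMSO wells and 100% = zero luminescence signal; higher percent means less beta-gal luminescence so fewer parasites; stock transfer was 50 nL into about 50 µL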
# ALR inh – blocks human ALR sulfhydryl oxidase activity; inhibition, % (no concentration beside the values); 290,000 compounds, 3.8% hits; AID 485317; P55789; purified ALR, DTT oxidation, H2O2 HRP-luminol luminescence;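 active = mean and each replicate at 75% or more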;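 note: stock transfer was 7.5 nL into about 7.5 µL; 0% = neutral wells and 100% = wells with inactivated enzyme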
# Calb FLC – C. albicans growth modulation with fluconazole; C. albicans CaCi-2 (fluconazole-resistant clinical isolate) + fluconazole, Alamar Blue growth, 48 h; 300,000 compounds, 0.57% hits; growth inhibition, % (no concentration beside the values);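 active = most replicates above 75%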;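 note: all wells also contain fluconazole at 8 µg/ml as a sub-toxic cotreatment; 0% = median of DMSO wells and 100% = median of geldanamycin control wells; wells of about 8 µL received 7.5 nL stock; the first replicate is given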
# rRNA inh HTS OD600 – recorded beside rRNA inh HTS, whose call it bears; OD600 change, %; measured here: OD600 growth;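 optical density of the mix in the first replicate; 0 = DMSO median and -100 = no signal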
# rRNA inh HTS RFP – second read-out of rRNA inh HTS, no call of its own (marks repeat the call); RFP signal change, %; measured here: RFP humanized mutant strains;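 first replicate; 0 = DMSO median and -100 = no signal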
# * hit, by the source's call; x = no result given. This is a subset, so the mix of outcomes need not match the whole.
SMILES,Beta cell apopt,LANA-H2A inh,A1 inh,rRNA inh HTS,rRNA inh HTS OD600,rRNA inh HTS RFP,B2AR ag,T cruzi inh,ALR inh,Calb FLC
CCc1noc(C)c1C(=O)NCCc1ccc(OC)c(OC)c1,1.7,-1.4,-0.3,x,x,x,7.6,-2.6,-2.8,18.9
COc1cc2c(cc1OC)CN(c1nc(CN3CCOCC3)nc3sc4c(c13)CCC(C)C4)CC2 (centres undefined),3.1,2.1,0.3,x,x,x,-0.3,3.6,-12.5,21.4
COc1ccc(S(=O)(=O)NCC2CCCO2)cc1NC(=O)c1ccccc1 (centres undefined),-5.6,4.1,-0.1,2.5,-0.4,0.0,0.6,-2.1,-10.5,6.2
Cc1cccc(-c2oc3ccccc3c2C#CCCO)c1,-3.5,-2.4,0.5,-1.3,-4.4,-13.8,6.0,-0.5,-4.3,-11.3
CC(=O)c1c(C(C)=O)c(C)n(-c2nc(-c3ccc(Br)cc3)c(C)s2)c1C,-4.7,-2.2,1.1,x,x,x,10.0,21.9,3.6,11.0
CCOc1ccc(C(=O)NC(C(=O)NCC(c2cccs2)N(C)C)C(C)C)cc1 (centres undefined),-0.8,-3.9,-0.1,10.6,6.9,-1.6,-1.4,x,-5.6,x
CCc1noc(C)c1C(=O)N1CCC(CCC(=O)Nc2cccc(OC)c2)CC1,-2.9,-2.5,0.5,-1.9,5.6,1.1,-3.0,-16.2,-16.3,5.7
CCOC(=O)C(NC(=O)CCl)(Nc1sc(C)c(CC)c1C#N)C(F)(F)F (centres undefined),1.2,-8.0,0.0,x,x,x,-1.9,-15.1,3.4,3.9
Cc1c(C(=O)c2ccc(Cl)c([N+](=O)[O-])c2)c2ccccn2c1CCC#N,-0.8,-3.8,0.0,x,x,x,-8.8,10.7,40.1,12.1
CC1(c2ccc(Cl)cc2Cl)NC(=O)N(CC(=O)NC2CCCCC2)C1=O (centres undefined),-0.9,4.8,0.5,1.5,-19.1,-0.1,-11.3,x,43.4,x
CCCCNC(=O)Cn1cnc2sc(C(=O)OCC)c(C)c2c1=O,6.9,-0.8,-0.7,x,x,x,-0.6,7.9,-0.5,-12.0
O=C(NCCc1ccccc1)c1ccc2c(=O)[nH]c3c(C(=O)NCC4CCCO4)sc(=S)n3c2c1 (centres undefined),x,-5.5,0.4,-37.9,-39.2,-11.3,6.3,-6.2,37.8,9.5
CC(=O)c1cccc(NC(=O)CSc2n[nH]c(=O)n2C2CC2)c1,2.5,2.5,-0.9,4.3,10.5,0.4,1.3,x,-2.1,x
Cc1ccc(CNC(=O)CSc2ccsc2[N+](=O)[O-])cc1,-3.3,-1.9,-1.3,6.3,-0.9,-0.7,8.5,18.1,-24.9,4.1
O=S(=O)(NC(=S)c1ccccc1)c1ccc(F)cc1,x,3.5,-0.4,1.0,-1.9,0.4,-2.7,-11.1,0.5,4.6
COc1cc(CCC(=O)OCC(=O)Nc2ccc(C)cc2Br)cc(OC)c1OC,-12.6,-1.1,0.5,13.9,16.6,0.3,-6.8,-16.2,-0.7,-10.0
Cc1cc([N+](=O)[O-])ccc1NC(=O)C(C)NC1CCCCC1 (centres undefined),-7.5,-4.7,0.7,-3.4,2.3,-0.4,4.4,-14.2,4.6,-12.2
O=C(Oc1ccc(N(Cc2cccs2)C2=NS(=O)(=O)c3ccccc32)cc1)c1ccc(Cl)cc1,5.4,1.4,0.1,x,x,x,-1.0,24.1,-2.3,4.4
COC(=O)c1cc(-c2ccc3c(c2)OCO3)nc2ccccc12,5.2,1.3,0.1,x,x,x,4.4,10.2,18.2,19.3
COc1ccc(C2c3ccc(O)cc3Oc3ncn(Cc4ccccc4)c(=N)c32)cc1OC (centres undefined),9.0,0.4,-0.3,0.2,2.6,1.3,-23.3,11.4,8.6,-3.3
CN(C)CCOC(=O)c1sc2ccccc2c1Cl,2.3,-0.5,-0.1,-14.6,-11.9,-2.1,-4.5,4.1,-2.1,110.4*
O=C(CN1C(=O)NC2(CCCc3ccccc32)C1=O)c1ccc(F)cc1 (centres undefined),40.1,3.5,0.2,-1.3,-5.1,-2.7,3.0,x,-3.4,x
CCC(Oc1ccc(Br)cc1Cl)C(=O)Nc1nnc(C2CC2)s1 (centres undefined),-0.3,4.8,1.8,-30.1,-57.1,1.9,-2.9,-2.1,0.2,6.2
CC1CCCCC1NC(=O)CSc1nnc(-c2ccccc2)n1N (centres undefined),-2.7,-8.8,0.5,x,x,x,1.0,-11.2,-9.2,-0.3
Cc1nn(CC(=O)c2cccc(Cl)c2)c(C)c1[N+](=O)[O-],3.3,1.3,0.0,-10.7,-13.5,3.1,-0.5,-0.7,-0.9,-7.6
Cn1cccc1C(=O)NC(=O)COC(=O)CNC(=O)c1ccc(Cl)cc1Cl,0.6,0.2,0.7,x,x,x,-8.8,-18.1,-1.4,-1.7
COc1ccc(OC)c(/C=N/NC(=O)c2ccncc2)c1,-6.3,3.8,0.5,9.9,10.7,3.1,-5.9,-13.7,x,-0.9
CN1c2ccccc2Oc2nnc(Cl)cc21,-3.5,2.1,-0.6,0.6,-8.8,-3.9,-4.1,-5.2,x,-19.5
COc1ccccc1Nc1cc(C)nc2c(C)ccc([N+](=O)[O-])c12,3.0,1.7,0.2,x,x,x,2.7,-15.1,-4.4,0.1
COc1ccc([N+](=O)[O-])cc1NC(=O)CSCc1ccccc1C,3.0,-8.3,0.5,x,x,x,-8.4,4.8,98.9*,14.8
CC(Sc1ccc2ccccc2c1)C(=O)NC(N)=O (centres undefined),-9.5,-0.3,-0.2,-2.9,-4.4,-0.3,-4.9,-17.4,x,-9.3
COc1cc(CNCc2ccccn2)ccc1OCc1ccc(Cl)cc1Cl,4.4,3.1,0.4,x,x,x,29.0,9.6,-15.1,-37.4
CC(C)=N/N=C1/NC(=O)C(Cc2ccccc2)S1 (centres undefined),-2.8,0.2,0.8,5.2,0.1,4.4,1.4,-4.3,-1.5,-4.5
O=C(NCC1CCCO1)c1cn(-c2ccccc2)nc1-c1ccccc1 (centres undefined),x,0.1,-1.2,-12.9,-18.8,0.4,-27.4,-2.2,-0.4,-15.0
O=C1c2ccccc2NC2(CCCC2)N1O,3.6,0.4,0.6,x,x,x,-6.3,-18.8,52.9,5.7
CCOC(=O)c1ccc(NC(=O)c2ccc(NS(C)(=O)=O)cc2)cc1,4.1,-2.0,-0.1,x,x,x,3.6,2.2,3.8,-7.8
CC(CC12CC3CC(CC(C3)C1)C2)NCc1ccccc1O (centres undefined),18.3,-0.9,0.3,-49.5,-75.9,-10.3,31.8,29.3,36.5,10.1
Oc1ccccc1CN1CCC(C(O)(c2ccccc2)c2ccccc2)CC1,-0.1,0.3,1.1,2.6,-36.0,24.2,15.0,3.8,11.2,-17.9
O=C(N/N=C/c1ccc2c(c1)OCO2)c1ccc(Br)o1,6.3,3.1,0.9,x,x,x,-9.2,-6.0,x,-6.8
CCOC(=O)N1CCN(c2ncnc3c2[nH]c2ccc(OC)cc23)CC1,-1.5,-0.5,0.0,x,x,x,90.5*,31.0,56.2,15.1

# Only LANA-H2A inh, rRNA inh HTS and rRNA inh HTS OD600, for two of the compounds above:
Molecule | LANA-H2A inh | rRNA inh HTS | rRNA inh HTS OD600
O=C1c2ccccc2NC2(CCCC2)N1O | 0.4 | x | x
CCOC(=O)c1ccc(NC(=O)c2ccc(NS(C)(=O)=O)cc2)cc1 | -2.0 | x | x

# Next section:
SMILES,Beta cell apopt,LANA-H2A inh,A1 inh,rRNA inh HTS,rRNA inh HTS OD600,rRNA inh HTS RFP,B2AR ag,T cruzi inh,ALR inh,Calb FLC
O=C(CN(Cc1ccccc1)C(=O)c1csnn1)NCc1ccc2c(c1)OCO2,-9.3,-0.6,-0.1,-3.1,4.1,-0.8,0.2,6.1,-2.4,23.9
COc1ccccc1/C=C/C(=O)NC(=S)Nc1ccccn1,8.0,8.0*,0.1,9.1,5.2,3.0,-7.1,-0.3,-1.6,69.2
CC1(c2ccc(OC(F)F)cc2)NC(=O)N(CC(=O)Nc2ccc3[nH]c(=O)[nH]c3c2)C1=O (centres undefined),0.8,0.6,0.4,0.5,-0.4,-0.4,-2.0,-8.3,3.6,3.8
CCOC(=O)N/N=C(\C)c1ccc(Br)cc1,0.4,3.8,0.0,4.8,3.9,1.0,-7.3,-0.4,-9.0,3.1
CCCN(CCC)S(=O)(=O)c1cc2c3c(c1)CCN3C(=O)CC2,-6.7,4.1,0.3,-0.1,-6.0,-4.1,1.2,-3.5,-8.4,-4.3
Cc1nc([N+](=O)[O-])c(Br)n1Cc1ccccc1,-6.1,-6.5,-0.2,-38.6,-40.4,6.0,12.2,-9.8,7.3,-6.2
O=c1oc(/C=C/c2ccccc2)nc2sc3c(c12)CCC3,4.8,-2.5,-6.3,x,x,x,-2.6,-1.6,-4.1,-3.4
Cn1c(CCN2CCOCC2)nc2cc(NC(=O)c3cccs3)ccc21,6.5,1.8,1.0,-18.1*,3.3*,-1.4*,-6.6,-6.3,-2.4,2.5
CC(C(=O)NCC1CCCCC1)N1CCc2ccccc2C1 (centres undefined),7.0,3.1,-0.5,-27.6,-30.1,-5.8,-2.7,-0.8,1.7,-6.8
Cc1ccc(OCC(=O)Nc2cccc(-c3nnc(-c4ccccc4)o3)c2)cc1,-2.4,-2.8,0.3,x,x,x,24.2,-56.2,1.4,-7.3
Cc1noc(C)c1COC(=O)C1COc2ccccc2O1 (centres undefined),-8.1,1.7,1.8,x,x,x,1.4,-2.2,x,13.3
Cc1[nH]c(=S)c(C#N)c(-c2ccco2)c1C(=O)N(C)C,2.0,6.5,-0.6,17.4,14.8,20.2,-1.9,-6.1,-21.9,-2.8
CCOC(=O)/C(C#N)=C\c1c(C)cc(C)c(COC(C)=O)c1C,-1.2,-1.5,0.7,x,x,x,8.0,3.0,x,5.8
Cc1ccc(CNC(=O)C2CC(=O)N(c3ccc(OCC(=O)N4CCCC4)cc3)C2)cc1 (centres undefined),-4.4,3.9,0.2,x,x,x,-2.3,-15.9,19.6,-2.8
Cc1nc2c(-c3ccc(F)cc3)c(C)nn2c(C)c1CCC(=O)Nc1ccccc1,7.5,10.7,0.6,2.7,7.8,-2.5,-8.0,49.7,-8.9,-0.7
Clc1ccc(N/N=C/c2cccs2)nn1,-1.3,-1.6,-1.4,-3.7,9.2,-7.8,-1.3,-4.0,3.1,-31.2
Cc1ccc(S(=O)(=O)NCC(=O)OCC(=O)NC(=O)c2cccn2C)cc1,0.2,-5.0,0.4,6.1,12.1,2.2,3.7,-26.5,-12.1,3.0
C[C@@H]1NC(=O)c2cc([N+](=O)[O-])cc(I)c2NCCCC[C@@H](C(N)=O)NC(=O)[C@H](CC(N)=O)NC1=O,-7.7,7.9,-0.5,x,x,x,-0.1,x,-1.6,x
O=C(Nc1nc(-c2ccccn2)cs1)c1cc2ccccc2o1,2.4,-2.8,0.9,-53.6,-76.4,-24.0,6.1,76.9*,-5.8,98.6*
Cc1ccc(NC(=O)c2nc[nH]c2C(=O)NCCCCNC(=O)c2[nH]cnc2C(=O)Nc2ccc(C)cc2)cc1,14.6,2.9,0.5,0.8,11.8,-4.5,14.6,x,-6.6,x
